FGF22 binding: FGF22 (human) thermal shift binding. Q9HCT0. recombinant FGF22 thermal shift, SYPRO orange fluorescence; percent of sucrose octasulfate shift, DMSO zero. calls only at 9.99 µM. 340,000 compounds, 1.5% hits;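 active = melting point raised past a set limit in the mean and every replicate; three in four hits are not shown here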
Target sequence (Q9HCT0 whole entry, looked up): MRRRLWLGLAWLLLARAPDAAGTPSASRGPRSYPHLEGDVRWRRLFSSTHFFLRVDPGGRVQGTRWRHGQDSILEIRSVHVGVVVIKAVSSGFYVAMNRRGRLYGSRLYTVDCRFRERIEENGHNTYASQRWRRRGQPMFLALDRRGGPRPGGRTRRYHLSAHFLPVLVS
Calls only; i = inactive; + = active, no number.

FGF22 binding | molecule
i | COc1ccccc1-c1ccc2c(c1)O[C@@H](CN(C)S(=O)(=O)c1ccc(C)cc1)[C@@H](C)CN([C@@H](C)CO)S2(=O)=O
i | O=C(C[C@@H]1CC[C@H]2[C@@H](COC[C@@H](O)CN2CC2CCOCC2)O1)N1CCOCC1
i | C[C@@H]1CN([C@H](C)CO)C(=O)c2cc(NS(=O)(=O)c3cccs3)ccc2O[C@@H](C)CCCCO[C@@H]1CN(C)S(C)(=O)=O
i | C/C=C/c1ccc2c(c1)O[C@@H](CN(C)C(=O)Cc1ccncc1)[C@H](C)CN([C@@H](C)CO)S2(=O)=O
i | C[C@@H]1CN([C@H](C)CO)C(=O)c2cc(C#CC3CCCC3)cnc2O[C@H]1CN(C)C(=O)C1CCCCC1
i | C[C@@H]1CN([C@@H](C)CO)C(=O)c2cc(-c3cccnc3)cnc2O[C@@H]1CN(C)Cc1ccc(Oc2ccccc2)cc1
i | N#C[C@@H]1[C@H](c2ccccc2C2=CCCC2)[C@H](CO)N1C(=O)C1CCCC1
i | COc1ccc(NC(=O)Nc2ccc3c(c2)[C@H]2C[C@@H](CC(=O)N[C@@H](C)c4ccccc4)O[C@@H](CO)[C@H]2O3)cc1
i | N#C[C@H]1[C@@H](c2ccc(-c3ccccc3)cc2)[C@@H](CO)N1S(=O)(=O)Cc1ccccc1
i | C[C@@H]1CN([C@H](C)CO)C(=O)c2cc(Br)cnc2O[C@@H]1CN(C)C(=O)c1ccccn1
i | CCS(=O)(=O)N1CCC2(CC1)CN(Cc1ccccc1OC)[C@H](CO)c1c2c2ccc(OC)cc2n1C
i | C[C@@H]1CN([C@H](C)CO)C(=O)c2cc(NS(=O)(=O)c3ccc(F)cc3)ccc2O[C@@H]1CN(C)C(=O)Nc1ccc(F)cc1
i | C[C@H](CO)N1C[C@H](C)[C@H](CN(C)C)OCCCC[C@H](C)Oc2ccc(NS(=O)(=O)c3ccc(Cl)cc3)cc2C1=O
i | COCC#Cc1ccc([C@@H]2[C@@H](CO)N3CCCCN(C(=O)CN(C)C)C[C@@H]23)cc1
i | C[C@H](CO)N1C[C@H](C)[C@H](CN(C)S(=O)(=O)c2cn(C)cn2)Oc2ccc(NS(=O)(=O)c3cccs3)cc2C1=O
i | C[C@H](CO)N1C[C@H](C)[C@H](CN(C)C(=O)C2CCCCC2)OCCCC[C@H](C)Oc2ccc(NS(=O)(=O)c3cn(C)cn3)cc2C1=O
i | O=C(Nc1cc(F)ccc1F)N1CCCCN2[C@@H](CO)[C@@H](c3ccc(C4=CCCCC4)cc3)[C@@H]2C1
i | COCCNC(=O)C[C@@H]1C[C@H]2c3cc(NC(=O)CC4CC4)ccc3O[C@H]2[C@@H](CO)O1
i | CO[C@@H]1CN(C)C(=O)c2ccc(NC(=O)Nc3ccccc3F)cc2OC[C@@H](C)N(Cc2ccccc2F)C[C@H]1C
i | COc1ccc(S(=O)(=O)Nc2ccc3c(c2)C(=O)N([C@@H](C)CO)C[C@H](C)[C@H](CN(C)S(=O)(=O)c2cccs2)O3)cc1
i | C[C@@H]1CN([C@@H](C)CO)C(=O)Cc2cc(NC(=O)CCN3CCOCC3)ccc2O[C@@H]1CN(C)C(=O)Nc1cccc2ccccc12
i | C[C@H]1CN([C@@H](C)CO)C(=O)c2cc(C#Cc3ccccn3)cnc2O[C@H]1CN(C)C(=O)CCN1CCCCC1
i | O=C(C[C@@H]1C=C[C@@H](NC(=O)C2CC2)[C@H](CO)O1)NC1CCC1
i | CC(C)NC(=O)N[C@H]1C=C[C@@H](CC(=O)N2CCCCC2)O[C@@H]1CO
i | CNC(=O)C[C@H]1CC[C@H]2[C@@H](COc3ccc(NC(=O)NCc4ccccc4)cc3C(=O)N2C)O1
i | C[C@@H]1CN([C@@H](C)CO)C(=O)c2cccc(NC(=O)c3ccncc3)c2O[C@H]1CN(C)C(=O)Nc1ccccc1
i | C[C@@H]1CN([C@@H](C)CO)C(=O)c2cc(NS(=O)(=O)c3ccccc3)ccc2O[C@@H]1CN(C)Cc1ccc(Oc2ccccc2)cc1
i | CCCN(C)C[C@@H]1OCCCC[C@@H](C)Oc2ccc(NC(=O)Nc3ccc(OC)cc3)cc2C(=O)N([C@H](C)CO)C[C@@H]1C
i | C[C@@H]1CN([C@H](C)CO)C(=O)c2cccc(NC(=O)Nc3ccccc3)c2O[C@H]1CN(C)C
i | CCCC#Cc1cnc2c(c1)C(=O)N([C@@H](C)CO)C[C@H](C)[C@@H](CN(C)CCC)O2
i | C[C@H](CO)N1C[C@H](C)[C@@H](CN(C)Cc2ccccn2)Oc2cc(C#CCN(C)C)ccc2S1(=O)=O
i | C[C@H](NC(=O)C[C@@H]1CC[C@H]2[C@@H](COC[C@@H](O)CN2Cc2cc(F)ccc2F)O1)c1ccccc1
i | COc1ccc2c3c([nH]c2c1)[C@H](CO)NCC31CCN(C(=O)C2CCC2)CC1
i | C[C@H](CO)N1C[C@H](C)[C@H](CN(C)S(=O)(=O)c2ccccc2)Oc2ncc(-c3cc4ccccc4o3)cc2C1=O
i | CCCN(C)C[C@H]1Oc2cc(C#CC(C)C)ccc2S(=O)(=O)N([C@H](C)CO)C[C@H]1C
i | C[C@@H]1CN([C@@H](C)CO)C(=O)c2cc(NC(=O)c3ccccc3)ccc2O[C@@H](C)CCCCO[C@H]1CN(C)S(=O)(=O)c1cccs1
i | Cc1ccccc1S(=O)(=O)NCC[C@@H]1CC[C@H](NS(=O)(=O)c2ccccc2C)[C@@H](CO)O1
i | CC(=O)N1[C@H](C(=O)N2CCc3ccccc3C2)[C@@H](CO)[C@@H]2Cn3c(ccc(-c4cccnc4)c3=O)[C@@H]21
+ | O=C(N[C@H]1CC[C@H](CCn2cc(C3(O)CCCC3)nn2)O[C@@H]1CO)C1CCCCC1
i | CN(C)Cc1cn(CC[C@@H]2CC[C@H](NS(=O)(=O)c3ccccc3)[C@@H](CO)O2)nn1
i | COc1ccc(S(=O)(=O)N[C@@H]2CC[C@@H](CC(=O)NCCc3ccncc3)O[C@@H]2CO)cc1
i | C/C=C/c1ccc([C@@H]2[C@@H](CO)N3CCCCN(S(=O)(=O)c4ccc(OC)cc4)C[C@H]23)cc1
i | C[C@@H](O)C#Cc1ccc2c(c1)O[C@H](CN(C)Cc1ccccc1)[C@@H](C)CN([C@@H](C)CO)S2(=O)=O
i | CCC(=O)Nc1ccc2c(c1)C(=O)N(C)[C@H]1CC[C@H](CC(=O)NCCCN(C)C)O[C@H]1CO2
i | CN(C[C@@H]1[C@@H](c2ccccc2)[C@H](CO)N1Cc1ccccn1)S(C)(=O)=O
i | C[C@H]1CN([C@@H](C)CO)C(=O)c2cccc(NC(=O)c3nc4ccccc4s3)c2O[C@@H]1CN(C)S(=O)(=O)c1ccc(Cl)cc1
i | CN1CCCCN2[C@@H](CO)[C@@H](c3ccc(/C=C/c4ccccc4)cc3)[C@@H]2C1
i | C[C@@H]1CN([C@H](C)CO)C(=O)c2cc(-c3cccc(F)c3)cnc2O[C@@H]1CN(C)C(=O)C1CCCCC1
i | CCCNC(=O)N1[C@H](C#N)[C@@H](c2ccc(-c3ccccc3F)cc2)[C@@H]1CO
i | C[C@@H]1CCCCO[C@H](CN(C)Cc2ccc(C(F)(F)F)cc2)[C@@H](C)CN([C@H](C)CO)C(=O)c2cc(NC(=O)Nc3ccc(C(F)(F)F)cc3)ccc2O1
i | Cc1noc(C)c1NC(=O)Nc1ccc2c(c1)CC(=O)N([C@@H](C)CO)C[C@H](C)[C@H](CN(C)Cc1ccc(-c3ccccc3)cc1)O2
i | C[C@H](CO)N1C[C@H](C)[C@H](CN(C)Cc2ccc3c(c2)OCO3)Oc2c(NS(=O)(=O)c3cn(C)cn3)cccc2C1=O
i | O=C(c1ccccc1)N1Cc2ccccc2[C@H]2OC(c3ccc(OCCCO)cc3)=N[C@@]2(CCS(=O)(=O)c2ccccc2)C1=O
i | O=C(C[C@@H]1C=C[C@@H](NC(=O)c2ccncc2)[C@@H](CO)O1)NCCc1ccncc1
i | C[C@H]1CCCCO[C@@H](CN(C)C(=O)Nc2cccc3ccccc23)[C@@H](C)CN([C@@H](C)CO)C(=O)c2cc(NS(=O)(=O)c3ccccc3)ccc2O1
i | CN1c2ccc(-c3cccc(F)c3)cc2[C@H]2[C@H](CCN2C(=O)C2CC2)[C@H]1CO
i | C[C@@H](NC(=O)C[C@H]1CC[C@H](NC(=O)CN2CCOCC2)[C@H](CO)O1)c1ccccc1
i | CO[C@H]1CN(C)C(=O)c2cc(NC(=O)c3cnccn3)ccc2OC[C@H](C)NC[C@H]1C
i | C[C@@H]1CCCCO[C@H](CN(C)C(=O)CCCN(C)C)[C@@H](C)CN([C@H](C)CO)C(=O)c2cc(NS(=O)(=O)c3ccc(Cl)cc3)ccc2O1
i | C[C@H](CO)N1C[C@H](C)[C@@H](CN(C)C(=O)CC2CC2)Oc2cc(C#CC3CC3)ccc2S1(=O)=O

(continued)
FGF22 binding | molecule
i | CN(C)C(=O)c1cccc(-c2ccc([C@H]3[C@H](CO)N4CCCCN(S(C)(=O)=O)C[C@@H]34)cc2)c1
i | CCC(=O)N1[C@@H](CO)[C@H](c2ccc(-c3ccccc3OC)cc2)C12CN(C(C)=O)C2
i | C[C@@H]1CN([C@H](C)CO)C(=O)c2cc(NC(=O)c3ccncc3)ccc2O[C@H]1CN(C)Cc1ccc(C(=O)Nc2ccccc2N)cc1
i | COc1cccc(CNC(=O)C[C@@H]2CC[C@@H]3[C@H](COc4ccc(NC(C)=O)cc4C(=O)N3C)O2)c1
i | Cc1noc(C)c1NC(=O)Nc1ccc2c(c1)CC(=O)N([C@@H](C)CO)C[C@@H](C)[C@@H](CN(C)C)O2
i | C[C@@H]1CN([C@H](C)CO)C(=O)c2cccc(NS(=O)(=O)c3ccc(F)cc3)c2O[C@H]1CN(C)C(=O)Nc1ccc(C(F)(F)F)cc1
i | Cc1ccccc1-c1cnc2c(c1)C(=O)N([C@@H](C)CO)C[C@H](C)[C@H](CN(C)Cc1cccnc1)O2
+ | O=C(Nc1ccccc1F)N1[C@H](CO)[C@H]2c3ccccc3NC[C@H]21
i | O=C(C1CCCC1)N1[C@H](CO)[C@H]2c3ccccc3N(S(=O)(=O)c3ccccc3)C[C@H]21
i | CCS(=O)(=O)N1CC2(C1)[C@@H](c1ccccc1)[C@@H](CO)N2CCC(F)(F)F
i | C[C@H]1CN([C@@H](C)CO)C(=O)c2cc(N(C)C)ccc2O[C@H]1CN(C)C(=O)Nc1ccc(F)cc1
i | C[C@@H]1CN([C@@H](C)CO)S(=O)(=O)c2ccc(C#CCN(C)C)cc2O[C@H]1CN(C)C

Sorted by length of the SMILES (low to high): some entries from above.
FGF22 binding | molecule
i | N#C[C@@H]1[C@H](c2ccccc2C2=CCCC2)[C@H](CO)N1C(=O)C1CCCC1
i | CCCNC(=O)N1[C@H](C#N)[C@@H](c2ccc(-c3ccccc3F)cc2)[C@@H]1CO
i | CN1c2ccc(-c3cccc(F)c3)cc2[C@H]2[C@H](CCN2C(=O)C2CC2)[C@H]1CO
i | COCCNC(=O)C[C@@H]1C[C@H]2c3cc(NC(=O)CC4CC4)ccc3O[C@H]2[C@@H](CO)O1
i | CNC(=O)C[C@H]1CC[C@H]2[C@@H](COc3ccc(NC(=O)NCc4ccccc4)cc3C(=O)N2C)O1
i | C/C=C/c1ccc([C@@H]2[C@@H](CO)N3CCCCN(S(=O)(=O)c4ccc(OC)cc4)C[C@H]23)cc1
i | C[C@@H]1CN([C@H](C)CO)C(=O)c2cc(C#CC3CCCC3)cnc2O[C@H]1CN(C)C(=O)C1CCCCC1
i | C[C@H](CO)N1C[C@H](C)[C@H](CN(C)S(=O)(=O)c2ccccc2)Oc2ncc(-c3cc4ccccc4o3)cc2C1=O
i | C[C@H](CO)N1C[C@H](C)[C@H](CN(C)Cc2ccc3c(c2)OCO3)Oc2c(NS(=O)(=O)c3cn(C)cn3)cccc2C1=O
i | C[C@@H]1CN([C@@H](C)CO)C(=O)c2cc(NS(=O)(=O)c3ccccc3)ccc2O[C@@H]1CN(C)Cc1ccc(Oc2ccccc2)cc1
i | COc1ccc(S(=O)(=O)Nc2ccc3c(c2)C(=O)N([C@@H](C)CO)C[C@H](C)[C@H](CN(C)S(=O)(=O)c2cccs2)O3)cc1
i | C[C@@H]1CN([C@@H](C)CO)C(=O)c2cc(NC(=O)c3ccccc3)ccc2O[C@@H](C)CCCCO[C@H]1CN(C)S(=O)(=O)c1cccs1
i | C[C@@H]1CCCCO[C@H](CN(C)Cc2ccc(C(F)(F)F)cc2)[C@@H](C)CN([C@H](C)CO)C(=O)c2cc(NC(=O)Nc3ccc(C(F)(F)F)cc3)ccc2O1

(next part)
FGF22 binding | molecule
i | CN1CCN(C(=O)C[C@H]2CC[C@H]3[C@@H](COC[C@@H](O)CN3C(=O)c3ccccc3F)O2)CC1
i | CC(C)NC(=O)N(C)C[C@@H]1Oc2ccc(NC(=O)Cn3cnnn3)cc2CC(=O)N([C@@H](C)CO)C[C@H]1C
i | COc1ccc(NC(=O)N(C)C[C@@H]2Oc3ncc(C#C[C@H](C)O)cc3C(=O)N([C@@H](C)CO)C[C@H]2C)cc1
i | COCC(=O)N1[C@H](CO)[C@@H](c2ccccc2)[C@@H]1CN(C)C(=O)c1cccnc1
i | Cc1noc(C)c1NC(=O)N(C)C[C@@H]1Oc2ncc(C3=CCCC3)cc2C(=O)N([C@H](C)CO)C[C@@H]1C
i | CCC(=O)N[C@H]1CC[C@H](CCNC(=O)Nc2ccc(F)cc2)O[C@H]1CO
i | N#Cc1ccc(-c2ccc3c(c2)[C@@H]2[C@@H](CCN2C(=O)Cc2ccccc2)[C@@H](CO)N3)cc1
i | COCC(=O)N(C)C[C@H]1Oc2cc(C#CCN(C)C)ccc2S(=O)(=O)N([C@@H](C)CO)C[C@@H]1C
i | C[C@@H]1CCCCO[C@H](CN(C)C(=O)Nc2cccc3ccccc23)[C@@H](C)CN([C@H](C)CO)C(=O)c2cc(NC(=O)c3ccncc3)ccc2O1
i | CCCc1cn(CC[C@@H]2CC[C@H](NC(=O)C3CCC3)[C@H](CO)O2)nn1
i | C[C@H](CO)N1C[C@H](C)[C@@H](CN(C)Cc2ccc3c(c2)OCO3)Oc2cc(-c3cccc(C(=O)N(C)C)c3)ccc2S1(=O)=O
i | O=C(c1ccccc1F)N1C[C@@H]2[C@H](c3ccccc31)[C@@H](CO)N2Cc1ccc2c(c1)OCO2
i | O=C(C[C@H]1C=C[C@H](NS(=O)(=O)c2ccc(F)cc2)[C@H](CO)O1)NC1CCC1

Not all compounds are listed. The share of hits here may be higher or lower than overall.
